AID504770 = growth inhibition of E. coli YBA685, primary screen, V. cholerae RctB inhibitors; E. coli YBA685 rctB-dependent plasmid, OD600 growth, 3 h; active compounds read low; z-score (test concentration not listed); 130,000 compounds, 0.27% hits; AID 504770, 2011;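 active means z-score under -2 on both plates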;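 further: wells of about 30 µL received 100 nL stock; score is relative to mean and SD of the test wells; the first replicate is given; strong numbers were not always called active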
CapD inh = Bacillus anthracis CapD inhibitors, primary screen, biochemical, fluorescence intensity | CapD gamma-glutamyltranspeptidase (Bacillus anthracis Ames Ancestor) | purified CapD enzyme, fluorescence intensity read-out; active compounds read low; some hits fall short of the stated cut | z-score (no concentration beside the values) | 140,000 compounds, 0.23% hits;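 active means z-score under -4 in either of two replicates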;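 further: stock transfer was 100 nL into about 40 µL; score is relative to mean and spread of the plate; one replicate is shown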
* marks the source's active call; other numbers are inactive results; . = not tested or not shown; & = joins results of further samples. These rows are one share of the data, so the mix of outcomes need not match the whole.

SMILES	AID504770	CapD inh
Cc1ccc(C2C3=C(Nc4c2c(=O)[nH]c(=O)n4C)c2ccccc2C3=O)cc1Cl (stereo not drawn)	.	0.165
Cn1nc(C(=O)NCc2cccs2)c2c1-c1ccccc1SC2	-1.2	-0.81
CSc1nc2ccccc2c(=O)n1C1CCCCC1	-1.1	0.405
CCC1=NN(C(=O)c2ccccc2)C(O)(c2ccc(Br)cc2)C1 (stereo not drawn)	.	-0.2
CCn1cc(C(=O)O)c(=O)c2ccc(C)nc21	-0.45	-0.345&-0.4&-0.31
CC1CC(C)(C)C/C1=N\Nc1ccc([N+](=O)[O-])cc1[N+](=O)[O-] (stereo not drawn)	.	-0.405
O=S(=O)(c1cccc(Cl)c1)N1C=CC(C(F)(F)F)=NCC1	-0.1	0.205
CC(C)Cn1c(N)c(C(=O)NCc2ccc3c(c2)OCO3)c2nc3ccccc3nc21	-0.2	.
C=CCn1c(COc2ccc(CC)cc2)nnc1SCC(=O)N(C)C1CCS(=O)(=O)C1 (stereo not drawn)	-0.45	.
CN(C)CCN1C(=O)C2C3C=CC(C3)C2C1=O (stereo not drawn)	1.9	.
COc1ccc(-c2ccc(Nc3ccc(C(=O)N4CCCCCC4)cc3)nn2)cc1	0.5	.
CCOc1ccccc1-n1c(SCC(=O)NCCc2ccc(S(N)(=O)=O)cc2)nc2n[nH]c(C)c2c1=N	.	0.53
CC1(C)CC(=O)C(C(C2=C(O)CC(C)(C)CC2=O)C(O)CO)C(=O)C1 (stereo not drawn)	-1.05	.
O=C1NC(=Nc2ccc(Cl)cc2)SC1Cc1ccccc1 (stereo not drawn)	.	0.59
C=CCc1cc(/C=C2/SC(=O)N(CC(=O)N3CCCC3)C2=O)cc(OCC)c1O	0.2	.
Cn1cccc1Cc1nnc(SCC(N)=O)n1-c1ccc(F)cc1	-0.85	-0.235
O=C(Cc1cn2ccsc2n1)NC(c1ccccc1)c1ccccc1	-0.55	-0.45
COc1ccc(OC)c(N(CC(=O)Nc2ccc(-c3nc4ccc(C)cc4s3)cc2)S(C)(=O)=O)c1	.	21.4
CCOC(=O)c1cc(-c2ccc(S(=O)(=O)N(C)Cc3cnn(-c4ccccc4)c3)s2)on1	-0.1	0.1
NS(=O)(=O)c1ccc(CCNC(=O)CSc2nc(NCc3ccc(Cl)cc3)c3ccccc3n2)cc1	.	2.46
CC1CN(C(C)C)C(C)CC1OC(=O)c1ccccc1 (stereo not drawn)	-0.25	0.22
COc1cc(OC)cc(N2CCN(C(=O)OCC3CCCN(Cc4ccccc4SC(C)(C)C)C3)CC2)c1 (stereo not drawn)	.	-0.67
N#CC1=C(N)Oc2n[nH]c(-c3ccccc3)c2C1c1cc(Cl)cc(Cl)c1OC(=O)N1CCOCC1 (stereo not drawn)	.	0.03
CC(=O)NCCOc1ccc(C2CCCCC2)cc1	-0.3	0.335
Nc1ncnc2nc(SCC(=O)Nc3ccc(Cl)cc3)[nH]c12	.	-0.075
Nc1nnc(SCC2=CC(=O)N3C=CSC3N2)s1 (stereo not drawn)	-0.35	.
CC(C)(O)CC1(CO)CCCCC1	-0.55	-0.61
COC(=O)c1ccc(COC(=O)C2CCN(c3ccc(C(F)(F)F)cn3)CC2)cc1	-0.1	.
Cc1cc(Br)ccc1N1C(=O)/C(=C/c2ccc(Br)cc2)C=C1c1ccccc1	.	-0.48
CN(C)S(=O)(=O)Oc1ccccc1C(=O)Nc1ccc(Cl)c(Cl)c1	.	0.12
CC(C)(C)C(=O)CSc1nc2ccccc2nc1Cc1ccc(F)cc1	.	0.15
CN1/C(=N\O)c2cccc3cccc1c23	0.25	.
CCCN1C(=O)/C(=C/c2c(N3CCCC3)nc3ccccn3c2=O)SC1=S	-0.25	.
CCOc1ccc(C(=O)N2CCN(C/C=C/c3ccccc3)CC2)cc1OCC	.	0.295
CCN(Cc1nc(-c2ccc(OC)cc2)no1)S(=O)(=O)c1c(C)cc(C)cc1C	-0.7	-0.85
Nc1nc(NCc2ccccc2OC(F)(F)F)n[nH]1	-0.75	-0.36
O=C(NCCN1CCOCC1)c1sc2ccccc2c1Cl	-0.6	-0.155
C=CCn1c(SCC(=O)NCc2cccnc2)nc2sc3c(c2c1=O)CCC3	.	0.245
Clc1nsc2ccccc12	-0.9	.
CC(=O)C12c3ccccc3C(c3ccccc31)C1C(=O)N(c3ccccc3C)C(=O)C12 (stereo not drawn)	.	-0.28
Cc1c(C(=O)NCc2ccc(OC(C)C)cc2)oc2ccc3c(c12)C=CC(C)(C)O3	0.85	0.025
COc1ccc(NC(=O)Cn2nc(C(F)(F)F)c(Br)c2C)cc1OC	.	0.14
CC1CN(C(=O)c2cc3ccccc3oc2=O)CC(C)O1 (stereo not drawn)	-0.65	0.67
CCn1c2ccccc2c2cc(CN3CCCC3)ccc21	1.85	28.4
CCCOc1cccc(N)c1	0.05	.
CCc1ccccc1NC(=O)CN1CCN(C(=O)/C=C/c2cc(Cl)c3c(c2)OCCO3)CC1	-0.3	.
COc1ccc(CCNS(=O)(=O)c2ccc(C3CNC(=O)C3)cc2)cc1OC (stereo not drawn)	-0.95	0.165
Cc1ccc(S(=O)(=O)NC(C)(C)CN2CCCCC2)cc1	1.4	.
Brc1ccc(-n2c(-c3ccco3)nc3nc4ccccc4nc32)cc1	0.05	.
O=C(COc1ccc(Cl)cc1)Nc1cccc(Cl)c1	-0.15	-0.155
Cc1cc(NCCc2ccccc2)n2c(nc3ccccc32)c1C#N	.	10.9
CC1(C)C(C(=O)NN2C(=O)c3ccccc3C2=O)C1(C)C	0.65	0.075
COC(CNC(=O)c1cc2c(=O)[nH]c3ccc(C)cc3c2s1)OC	-0.75	1.27
O=C1CN(C(=O)CCCOc2cccc(Br)c2)c2ccccc2N1	-0.05	.
COc1cc(C2C(N3C(=O)c4ccccc4C3=O)C(=O)N2c2ccc(C)cc2C)cc(OC)c1OC (stereo not drawn)	.	0.1
CCOC(CNC(=O)c1c(OC)cccc1OC)(OCC)c1ccccn1	.	-0.02
O=C(Nc1nc(-c2ccc(S(=O)(=O)N3CCCC3)cc2)cs1)c1cccs1	-0.45	4.16
CN1CCN(c2ccc(CNS(=O)(=O)c3cn(C)cn3)cc2)CC1	1.05	-0.65
COc1ccc(NC(=O)c2ccc(CN3CCS(=O)(=O)CC3)cc2)cc1	-0.75	0.62
O=C1c2cccnc2C(=O)N1CCc1ccc(S(=O)(=O)N2CCCc3ccccc32)cc1	-0.3	-0.04

More results.
SMILES	AID504770	CapD inh
Cc1cc(C(=O)NC2CCN(Cc3ccc4cc(F)ccc4c3)CC2)nn1C	.	-0.295
O=C(Cn1cnnn1)N(Cc1ccco1)Cc1cccs1	-0.4	.
N#CC(c1ccc(Cl)cc1)(c1ncc(C(F)(F)F)cc1Cl)N1CCOCC1 (stereo not drawn)	-0.4	-0.08
Cc1ccc(-c2cc(/C=C3/C(=O)C=Cc4ccccc43)c(O)o2)cc1	-0.5	24
CC(C(=O)NCC1CCCCC1)N1CC=C(c2ccccc2)CC1 (stereo not drawn)	-0.45	.
CC(C)(C)c1ccc(/C=C2\CCCC(=C3SCCCS3)C2=O)c2c1OCO2	-0.9	-1.48
COc1ccc(CCC(C(O)C(F)(F)F)S(=O)c2ccccc2)cc1 (stereo not drawn)	-0.25	0.285
COc1ccc2oc(C(F)(F)C(F)(F)C(F)(F)C(F)F)cc(=O)c2c1	-0.15	5.25
COc1ccc(NS(C)(=O)=O)cc1	0	-0.09
NS(=O)(=O)c1ccc(NC(=O)COc2ccc(F)cc2)cc1	0.7	0.595
Cc1oc(-c2ccc(Cl)cc2)cc1C(=O)N1CCN(Cc2ccccc2)CC1	-0.25	0.72
Cc1noc(C)c1COC(=O)c1ccc2ccccc2c1	0.6	.
CN(C)S(=O)(=O)c1ccc(N2CCCC2)c(C(=O)OCc2nc3ccsc3c(=O)[nH]2)c1	0.65	.
CNC(=O)C(C)OC(=O)C1CCN(C2=NS(=O)(=O)c3ccccc32)CC1 (stereo not drawn)	0.25	.
CNC(=O)NCCc1ccc(Cl)cc1	-0.95	-0.765
O=C1NC(=O)c2cc(NC(=O)C3CCCCC3)ccc21	0.65	4.08
CCOCCOc1nc(C)cc(C)c1C#N	0.2	0.98
COc1ccc(-c2cn(C(=O)c3cccs3)nc2C)cc1	-0.4	11.8
Cc1nn(Cc2ccccc2)c(C)c1C(=O)OCc1cccc(S(=O)(=O)N(C)C)c1	-0.4	.
CC1C/C(=N/NC(=O)C2CC2)CC(C)(C)C1 (stereo not drawn)	-0.25	.
COc1cc(NC(=O)CN2C(=O)CCC2=O)cc(OC)c1OC	-0.25	.
O=C1c2ccccc2C(=O)N1CC(O)COc1ccc(Cl)cc1Cl (stereo not drawn)	-0.15	0.135
O=C1NC(=Nc2ccc(F)cc2)S/C1=C/c1ccc2c(c1)OCO2	-0.75	-0.495
O=C(N/N=C1\SCC(=O)N1CCc1ccccc1)c1cccs1	-0.05	.
COc1ccc(C(=O)COC(=O)C2Cc3ccccc3CN2S(C)(=O)=O)cc1 (stereo not drawn)	0.4	.
COc1ccc(CCNC(CC(=O)Nc2ccccc2)C(=O)O)cc1 (stereo not drawn)	1.6	0.56
Clc1ccc(-c2nnc3c4ccccc4nc(N4CCOCC4)n23)cc1Cl	.	2.13
CCOC(=O)c1cn2nc(N3CCCCC3)ccc2n1	0.65	11.7
Cc1ccc2c(c1)-c1nc3ccccc3cc1/C2=C\c1ccc(Br)cc1	.	-0.49
c1ccc(N=c2scc(-c3ccccc3)n2Cc2ccco2)cc1	-0.2	-0.94
CCOC(=O)c1c(NC(=O)Cn2nc([N+](=O)[O-])c(Br)c2C)sc2c1CCC(C)C2 (stereo not drawn)	.	0.055
CCOc1ccc(/C=C/C(=O)Nc2ccc3[nH]c(=O)[nH]c3c2)cc1	-3.75	-0.51
O=C(NCc1csc(-c2cccs2)n1)c1ccc2nsnc2c1	0	-0.08
CCCN1C(=O)c2ccccc2NC1c1ccc(C)cc1 (stereo not drawn)	-0.9	.
Cc1nnc(NC(=O)c2ccc(F)cc2F)o1	-0.8	.
C=CCN1C(=O)CC(=O)NC1=S	1.9	0.07
OCCN1CCN(c2nc(N3CCCCC3)nc(N3CCCCC3)n2)CC1	.	-0.685
O=C(COC(=O)c1c2c(nc3ccccc13)CCC2)NC1CC1	0.6	20.9
O=C1C(c2ccc(F)cc2)N(CC2COc3ccccc3O2)C(=O)CN1C1CCCCC1 (stereo not drawn)	0.1	-0.515
CN1c2ccccc2C(=O)NC1c1ccc(Cl)c(Cl)c1 (stereo not drawn)	-0.7	.
O=C(CC1SC(=O)NC1=O)Nc1ccccc1NC(=O)CC1SC(=O)NC1=O (stereo not drawn)	-0.05	-0.08
Fc1ccc(NC(=S)N2CCCc3ccccc32)cc1	.	-0.405
CC(=O)Nc1cccc(C)c1C(=O)O	.	-0.17
O=C(CCCc1ccccc1)Nc1ncn[nH]1	-0.1	.
CCn1ncc(Br)c1C(=O)Nc1nccs1	-0.8	-0.415
O=C(CSc1nc2ccc(NC(=O)CSc3nnnn3-c3ccccc3)cc2s1)Nc1ccccc1	.	0.065
CCOC(=O)c1cnn(Cc2ccccc2)c1N	0.1	.
O=C1S/C(=C\c2cccc(Br)c2)C(=O)N1c1ccc(O)cc1	.	-1.37
Cn1cccc1C(=O)C(F)(F)F	-0.2	.
CN(c1ncnc2nc[nH]c12)C1CCCCC1	2.3	-0.63
Cc1cc(C)nc(NS(=O)(=O)c2ccc(NC(=O)c3ccccc3C(=O)O)cc2)n1	.	0.495
O=C(NCCc1ccccc1)c1ccc(CS(=O)Cc2cccc(Cl)c2)o1 (stereo not drawn)	0.5	-0.67
Cc1cc(C)cc(NC(=O)CCCC(=O)Nc2cc(C)cc(C)c2)c1	3.05	-0.275
Cc1oc(C(C)(C)C)cc1C(=O)NC1CCN(Cc2ccccc2)CC1	-0.25	-1.23
O=C(CNS(=O)(=O)c1ccccc1)OCc1csc(-c2ccccc2)n1	-0.8	.
NC(=O)COc1ccc2oc3ccccc3c2c1	1.2	.
Nc1ccccc1C(=O)NCCCN1CCOCC1	.	104
Fc1ccc(-c2[nH]ncc2CN2CCN(c3ccc(F)cc3)CC2)cc1	0	0.775
OCc1cc(Br)cc(CO)c1O	-0.6	.
Cc1ccc(NC2=Nc3ccccc3CS2)cc1	0.65	.
O=C(c1ccc([N+](=O)[O-])cc1)c1ccc2c(c1)CCC2	.	-0.665

High-throughput results deposited in PubChem BioAssay by ICCB-Longwood Screening Facility, Harvard Medical School.
